# Screens: PubChem BioAssay, several laboratories
# FGF22 binding: binders of recombinant human FGF22 by thermal shift; Q9HCT0; AID 651658; SYPRO orange fluorescence; percent of sucrose octasulfate shift, DMSO zero; calls only at 9.99 µM; 1.5% of 340,000 active;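 active = melting point raised past a set limit in the mean and every replicate; inconclusive = no clear call; three in four hits are not shown here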
# Target sequence (Q9HCT0 whole entry, looked up): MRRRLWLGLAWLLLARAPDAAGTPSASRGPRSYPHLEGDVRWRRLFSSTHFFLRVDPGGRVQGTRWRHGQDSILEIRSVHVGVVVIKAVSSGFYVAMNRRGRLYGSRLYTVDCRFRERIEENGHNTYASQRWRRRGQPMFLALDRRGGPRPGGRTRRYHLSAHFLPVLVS
# Vif TR-FRET: HIV-1 Vif–A3G interaction blockers – biochemical, TR-FRET, GST-Vif 1-94, biotin-A3G peptide, dose response retest, primary screen (AID 1117319); TR-FRET GST-Vif / biotin-A3G peptide binding; higher % means a stronger effect; test concentration not given here; strong numbers were not always called active; one-dose inhibition, %; IC50 in µM for titrated hits; 0.57% of 260,000 active;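 active = above the screen mean plus three standard deviations and confirmed in dose response; inconclusive = results disagree or hit not tested in dose response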;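 note: Vif residues 1-94 fused to GST binding biotinylated APOBEC3G peptide 110-148; 0% = full assay without inhibitor and 100% = GST in place of GST-Vif; retest series ran down from 100 µM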
# MLL AF4-AF9 inh: blocks AF4 peptide binding to human AF9; P42568; AlphaScreen, biotin-AF4 peptide binding to FLAG-AF9; inhibition, % at 10 µM; 0.47% of 350,000 active; AID 651704;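 active = every replicate reaching a set inhibition limit, whatever the replicate mean, cut at about 25% in these data; inconclusive = mean inhibition reaches that limit but some replicates miss it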;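 note: 0% = plate neutral control median and 100% = total signal loss; the record names both 10 and 1 µM as test concentration; the first replicate is given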
# E coli growth: blocks Escherichia coli growth | 0.21% of 330,000 active | OD600 absorbance (test concentration not listed) | OD600, 23 h; active compounds read low;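 active = OD600 absorbance below the run mean of sample wells minus 3.6 SD, in any replicate, cut at about 0.56 in these data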;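 note: stock transfer was 300 nL into about 60 µL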
# rRNA inh HTS: selective bacterial rRNA inhibition in E. coli. AID 720706. GFP signal change (wild-type ribosome), % (no concentration beside the values). 1.6% of 350,000 active. E. coli WT GFP vs humanized-ribosome RFP mutants, fluorescence, 24 h; active compounds read low; DMSO median 0, no signal -100;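 active = significant combined selectivity score with lowered wild-type GFP, culture density cut under 30%, mutant RFP and density less affected; inactive = any of these conditions unmet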; note: one replicate is shown; some compounds called inactive have numbers as strong as hits
# HNF4A DNA FP: change in binding of human HNF4 alpha to DNA; P41235; HNF4a-FITC DNA binding, fluorescence polarization, 1 h; activity change, % at 10 µM; 0.3% of 360,000 active; AID 1224865; in the data active = activity change above about 30%, passing the limit was not always enough;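 note: controls were the assay level and a saturating level of protein; the project sought stronger binding though the title names inhibitors; some compounds called inactive have numbers as strong as hits; positive values seem to mean higher polarization but the record does not say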
# Target sequence (P41235 whole entry, looked up): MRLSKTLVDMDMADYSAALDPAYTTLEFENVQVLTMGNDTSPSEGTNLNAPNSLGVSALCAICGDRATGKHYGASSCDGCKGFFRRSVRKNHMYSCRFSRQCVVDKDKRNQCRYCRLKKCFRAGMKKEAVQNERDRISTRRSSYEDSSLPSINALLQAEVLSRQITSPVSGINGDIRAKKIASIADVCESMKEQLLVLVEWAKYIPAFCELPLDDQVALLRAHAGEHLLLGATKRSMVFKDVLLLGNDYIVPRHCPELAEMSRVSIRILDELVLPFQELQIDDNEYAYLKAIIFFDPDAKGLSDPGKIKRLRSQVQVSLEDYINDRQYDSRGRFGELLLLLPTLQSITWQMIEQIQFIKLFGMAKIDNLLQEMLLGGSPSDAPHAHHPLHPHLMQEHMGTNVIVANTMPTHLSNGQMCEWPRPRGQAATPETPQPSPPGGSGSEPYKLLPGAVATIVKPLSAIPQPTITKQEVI
# ALR inh: human ALR oxidase inhibition via reduced H2O2 | purified ALR, DTT oxidation, H2O2 HRP-luminol luminescence | inhibition, % (test concentration not listed) | 3.8% of 290,000 active | AID 485317;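 active = mean and each replicate at 75% or more; inconclusive = only one of the two met; inactive = neither met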;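 note: stock transfer was 7.5 nL into about 7.5 µL; 0% = neutral wells and 100% = wells with inactivated enzyme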
# Target sequence (P55789 whole entry, looked up): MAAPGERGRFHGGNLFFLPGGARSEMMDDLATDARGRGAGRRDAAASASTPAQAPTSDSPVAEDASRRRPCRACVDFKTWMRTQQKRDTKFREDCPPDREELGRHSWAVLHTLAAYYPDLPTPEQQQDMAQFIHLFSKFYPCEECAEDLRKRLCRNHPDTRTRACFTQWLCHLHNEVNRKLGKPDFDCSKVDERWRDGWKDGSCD
# rRNA inh HTS OD600: further read-out of rRNA inh HTS, marked with its call; OD600 change, %; measured here: OD600 growth;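 optical density of the mix in the first replicate; 0 = DMSO median and -100 = no signal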
# rRNA inh HTS RFP: also measured in rRNA inh HTS; calls as there; RFP signal change, %; measured here: RFP humanized mutant strains;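 first replicate; 0 = DMSO median and -100 = no signal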
# The depositor's hits bear a star; i = inactive; ? = inconclusive; · = no result given. Some of the compounds tested; the hit share may differ from the screen's.
SMILES,FGF22 binding,Vif TR-FRET,MLL AF4-AF9 inh,E coli growth,rRNA inh HTS,rRNA inh HTS OD600,rRNA inh HTS RFP,HNF4A DNA FP,ALR inh
Cc1ccc(Nc2nnc(SC(C)C(=O)Nc3c(C)n(C)n(-c4ccccc4)c3=O)s2)cc1 (stereo not drawn),i,·,-21,0.7,-5,3,-5.5,-0.7,6
CC(=O)Nc1ccccc1C(=O)C(=O)O,·,7%,·,0.75,·,·,·,0.8,-3
CC(C)CC#Cc1ccc2c(c1)O[C@H](CN(C)C(=O)c1cccnc1)[C@H](C)CN([C@@H](C)CO)S2(=O)=O,i,·,1.0,·,0,-1,-1.7,·,·
CC(C)Oc1ccc(NC(N)=O)cc1,·,31%,·,0.66,·,·,·,-1.4,-14
CCCCN(CC)Cc1c(C)[nH]c2c(ccc3ccccc32)c1=O,i,-3%,1.4,0.66,5,6,-0.3,1.6,-7
CCc1ccccc1NC(=S)N(CCN1CCOCC1)C1CCN(C(C)=O)CC1,i,-10%,-1.5,0.67,15,16,7.2,0.5,0
COc1ccc(CCN(C(=O)COc2ccccc2)c2nc(-c3ccccc3)cs2)cc1OC,·,3%,·,0.73,·,·,·,0.5,7
COc1cc(S(=O)(=O)N2CCN(c3ccccn3)CC2)ccc1Br,i,·,-17,0.65,-21,-19,-1.6,1.3,1
CC(C)N(N=Nc1ccc([N+](=O)[O-])cc1)C(C)C,i,11%,-1.4,0.71,-2,4,-0.1,1.8,-14
CCN(C(=O)c1ccc(C)c(Br)c1)c1ccccc1,·,?,·,0.65,·,·,·,-3.8,·
COCCn1c(SCC(=O)c2[nH]c(C)c(C(C)=O)c2C)nc2ccccc2c1=O,i,-13%,2.5,0.64,-1,-9,-1.7,0.4,-7
COc1cc2ccccc2cc1C(=O)O,·,-1%,·,0.7,·,·,·,1.1,-11
CC(=O)c1cccc(NC(=S)NC(=O)c2ccccc2C)c1,i,·,-1.2,0.71,14,14,-1.7,-2.8,0
COc1cc2c(c3oc(-c4ccccc4)cc(=O)c13)C=CC(C)(C)O2,i,11%,8.2,0.73,·,·,·,6.2,1
CC(C)NC(=O)N(C)C[C@H]1OCCCC[C@H](C)Oc2ccc(NS(=O)(=O)c3ccc(F)cc3)cc2C(=O)N([C@@H](C)CO)C[C@@H]1C,i,·,-0.8,·,-6,-5,-0.7,·,·
Cc1cc(C)cc(C(=O)NCC(=O)N2CCC3(CC2)NCCc2[nH]cnc23)c1,i,0%,3.2,0.64,11,12,0.4,2.0,-3
O=c1cc(-c2ccc3c(c2)OCO3)oc2ccccc12,i,-1%,-0.4,0.69,16,18,-0.3,3.8,-1
Cn1c(=O)[nH]c2sc3c(c2c1=O)CC(C)(C)OC3,·,32%,·,0.75,·,·,·,5.8,-1
CC(C)CNS(=O)(=O)c1ccc(S(=O)(=O)N2CCC(N3CCCCC3)CC2)cc1,i,·,-1.4,0.71,3,9,-1.8,2.5,·
CCOC(=O)N1CCN(C(=O)CSc2nc(=O)n3cc(C)ccc3n2)CC1,i,3%,-7.5,0.6,1,4,-1.0,0.0,-5
CS(=O)(=O)N(CC(=O)NCc1ccc2c(c1)OCO2)C1CCCCC1,i,-14%,0.3,0.69,6,2,0.6,-1.1,-2
CC(=O)N1CCOc2ccc(S(=O)(=O)NC[C@H]3O[C@@H](n4ccc(=O)[nH]c4=O)[C@H](O)[C@@H]3O)cc21,i,2%,-2.7,·,6,13,-2.1,3.7,·
c1ccc2c(c1)oc1c(-c3cccc4nccn34)cccc12,i,·,-18,·,-55,-80,-17,-1.7,·
OC(c1ccccc1)(c1ccccc1)C1CCN(CCCOc2cccc(C(F)(F)F)c2)CC1,i,·,-2.9,·,-57,-77,-15,·,·
Cc1cccc(-c2ccc([C@H]3[C@H](CO)N4CCCCN(Cc5cncnc5)C[C@@H]34)cc2)c1,i,·,3.1,·,-7,7,1.4,·,·
COC(=O)[C@]12CCCCC=C1N(CCc1ccc(OC)c(OC)c1)C(=O)[C@H](CC(=O)N1CCCC1)C2,i,·,0.2,·,-4,-3,-0.5,-1.8,·
O=C(N/N=C/c1c(O)n(Cc2ccccc2)c(=O)c2ccccc12)c1cccnc1,i,17%,4.4,0.71,-24,-34,-4.6,42*,98*
OCCC1CN(Cc2cccn2-c2cccnc2)CCN1Cc1ccc(F)cc1 (stereo not drawn),i,?,-0.6,0.68,14,19,3.3,-3.1,-5
O=C(CNC(=S)N(CCCN1CCOCC1)Cc1cccs1)NCc1ccccc1Cl,i,·,-3.2,0.68,4,-3,7.6,0.2,-5
O=C(COc1ccc2oc(-c3ccccc3)cc(=O)c2c1)NCc1ccco1,·,2%,·,0.72,·,·,·,-4.6,-11
CN(C/C=C/c1ccccc1[N+](=O)[O-])Cc1ccccc1,·,·,13,0.67,-6,4,-2.4,-1.7,-9
COc1cccc([C@@H]2Oc3ccc(OC)cc3C(=O)[C@H]2O)c1,·,7%,·,·,·,·,·,3.1,0
COCC(=O)N(C)C[C@@H]1Oc2ncc(-c3ccc(F)cc3)cc2C(=O)N([C@H](C)CO)C[C@H]1C,i,·,-2.7,·,4,1,0.0,·,·
Cc1ccc(/C=N/n2c(-c3ccccn3)n[nH]c2=S)o1,i,7%,-2.0,·,20,19,-0.6,-1.3,·
CCOc1ccc(NC(=O)NC(C)c2ccc3c(c2)OCO3)cc1 (stereo not drawn),i,·,-1.0,0.69,4,3,2.1,-4.7,-3
COc1ccc(NC(=O)CC2C(=O)N(c3ccc(F)cc3)C(=S)N2NC(=O)c2ccc(Cl)cc2)cc1 (stereo not drawn),·,10%,·,0.74,·,·,·,-0.4,0
CC1CCN(CC(O)COc2ccc(C(=O)c3ccccc3)cc2)CC1 (stereo not drawn),i,·,-0.1,0.63,1,7,3.8,1.3,·
CCn1c2ccccc2c2cc(Nc3cc(C)nc4ncnn34)ccc21,i,4%,3.8,0.71,0,8,16,8.1,·
Cc1cc(Oc2nc3c(C)cccn3c(=O)c2/C=C(\C#N)S(=O)(=O)c2ccc(Cl)cc2)ccc1Cl,·,·,·,0.65,·,·,·,1.1,4
CCCN1CCN(CC(=O)Nc2nnc(C)s2)CC1,i,·,-1.9,0.66,-2,3,0.2,-0.4,-4
COCCCNc1c2c(nc3nnnn13)CCCC2,i,·,-4.5,0.69,18,9,-12,6.6,-6
Cc1ccc(OCCNC(=O)Cc2ccc(F)cc2)cc1,i,21%,-1.7,0.7,-10,-3,-1.3,-0.5,-2
CCC(=O)Nc1cccc(Br)c1,·,-2%,·,0.69,·,·,·,-3.1,-3
COc1ccc(CN2CCN(Cc3ccc4ccccc4c3)CC2)cc1OC,i,-5%,13,0.66,1,-15,0.4,0.3,-22
CN(Cc1ccon1)C(=O)CC1C(=O)NCCN1CC(C)(C)C (stereo not drawn),i,7%,-0.5,0.68,10,14,-3.0,-1.9,-8

# 4 of the compounds above, with the structure last.
FGF22 binding,Vif TR-FRET,MLL AF4-AF9 inh,E coli growth,rRNA inh HTS,rRNA inh HTS OD600,rRNA inh HTS RFP,HNF4A DNA FP,ALR inh,smiles
i,·,-1.9,0.66,-2,3,0.2,-0.4,-4,CCCN1CCN(CC(=O)Nc2nnc(C)s2)CC1
i,·,-4.5,0.69,18,9,-12,6.6,-6,COCCCNc1c2c(nc3nnnn13)CCCC2
i,21%,-1.7,0.7,-10,-3,-1.3,-0.5,-2,Cc1ccc(OCCNC(=O)Cc2ccc(F)cc2)cc1
·,-2%,·,0.69,·,·,·,-3.1,-3,CCC(=O)Nc1cccc(Br)c1

# Going on with the list.
SMILES,FGF22 binding,Vif TR-FRET,MLL AF4-AF9 inh,E coli growth,rRNA inh HTS,rRNA inh HTS OD600,rRNA inh HTS RFP,HNF4A DNA FP,ALR inh
CCOc1ccccc1-n1c(=S)sc2c(=O)n(-c3ccc(C)cc3)c(=S)[nH]c21,i,-1%,-0.4,0.67,7,13,-8.4,2.7,·
COc1cc(/C=C2\SC(=O)N(c3cccc(Cl)c3)C2=O)cc([N+](=O)[O-])c1O,i,·,11,0.72,-33*,-20*,-8.0*,0.5,·
CCC12CCC3c4ccc(O)cc4CCC3C1CC(O)C2O (stereo not drawn),i,0%,-2.5,·,2,-15,3.0,1.4,·
O=C(Nc1cccc2ccccc12)c1onc2c1CCCC2,·,-2%,·,0.72,·,·,·,1.4,-24
CC1CN(C(c2cccs2)c2sc3ncnn3c2O)CC(C)O1 (stereo not drawn),i,-3%,-6.1,0.77,-1,13,8.6,-0.8,6
COc1cccc(C(=O)Nc2ccc3c(c2)C(=O)N(C)C[C@H](OC)[C@@H](C)CN(CC2CC2)[C@H](C)CO3)c1,i,·,-1.0,·,-3,-4,2.9,·,·
N/C(=N\OC(=O)c1ccc2c(c1)OCO2)c1ccc(Cl)cc1,i,-6%,3.6,0.66,7,12,-1.8,2.0,9
CC1Cc2ccccc2N1C(=O)COC(=O)c1ccc(N(C)C)cc1 (stereo not drawn),i,·,-2.8,0.69,0,10,0.9,2.6,-1
COC(=O)C1=C(C)N(CCC2=CCCCC2)C(=O)C1,·,1%,·,0.75,·,·,·,-1.9,17
CN1CCN(S(=O)(=O)c2ccc3c(c2)OCCO3)CC1,·,2%,·,0.71,·,·,·,-2.2,-6
CCOc1ccc(N2C(=O)CC(N3CCN(c4ccc(Cl)cc4)CC3)C2=O)cc1 (stereo not drawn),i,-2%,2.3,0.71,8,13,-0.4,-2.7,2
Cc1oc(CN2CCOCC2)cc1C(=O)O,·,9%,1.1,0.69,12,15,1.5,-0.2,-2
COCC#Cc1ccc([C@@H]2[C@H]3CN(C(=O)c4ccncc4)CC(=O)N3[C@H]2CO)cc1,i,·,-4.2,·,5,10,-3.7,·,·
Oc1ccccc1-c1n[nH]c(=S)n1Cc1ccco1,·,1%,·,0.7,·,·,·,-5.8,91*
C[C@@H]1CCCCO[C@H](CN(C)C(=O)Nc2ccccc2)[C@H](C)CN([C@H](C)CO)C(=O)c2cc(NC(=O)Nc3ccccc3)ccc2O1,i,·,0.7,·,2,4,0.5,·,·

# Shown with two lines to a compound: part of the list above.
# Order of results – FGF22 binding, Vif TR-FRET, MLL AF4-AF9 inh, E coli growth, rRNA inh HTS, rRNA inh HTS OD600, rRNA inh HTS RFP, HNF4A DNA FP, ALR inh
COC(=O)C1=C(C)N(CCC2=CCCCC2)C(=O)C1
 : ·, 1%, ·, 0.75, ·, ·, ·, -1.9, 17
O=C(Nc1cccc2ccccc12)c1onc2c1CCCC2
 : ·, -2%, ·, 0.72, ·, ·, ·, 1.4, -24

# Next part:
SMILES,FGF22 binding,Vif TR-FRET,MLL AF4-AF9 inh,E coli growth,rRNA inh HTS,rRNA inh HTS OD600,rRNA inh HTS RFP,HNF4A DNA FP,ALR inh
O=C(Nc1ccccc1)N1CCCCN2[C@H](CO)[C@H](c3ccc(C#CC4CC4)cc3)[C@H]2C1,i,·,16,·,-60,-75,-13,·,·
COc1cccc(-c2cnc3c(c2)C(=O)N([C@@H](C)CO)C[C@@H](C)[C@H](CN(C)C(=O)CC2CC2)O3)c1,i,·,-1.3,·,-4,-4,-1.3,·,·
COCC#Cc1ccc2c(c1)O[C@H](CN(C)S(C)(=O)=O)[C@@H](C)CN([C@@H](C)CO)S2(=O)=O,i,·,-1.8,·,6,7,-0.7,·,·
CCC1CCCCN1C(=O)COc1ccc(N(C)S(=O)(=O)c2ccc(C)cc2)cc1 (stereo not drawn),i,2%,8.2,0.71,-39,-57,-3.2,1.8,-1
CCOC(=O)c1cc(-c2ccccc2)sc1NC(=O)C(C)OC(=O)c1cccnc1OCC (stereo not drawn),i,0%,-0.4,0.71,4,3,-0.9,6.6,-7
CCCN(C)C[C@H]1OCCCC[C@@H](C)Oc2ccc(NS(=O)(=O)c3ccccc3)cc2C(=O)N([C@H](C)CO)C[C@H]1C,i,·,6.5,·,0,4,1.5,·,·
